Bioassay records as filed in PubChem.
Mtb hypoxia rep = inhibitors of hypoxia-regulated fluorescent reporter in Mycobacterium tuberculosis. M. tuberculosis hypoxia-regulated fluorescent reporter, fluorescence. fluorescence inhibition, % (concentration not given with the values). hit rate 0.1% among 300,000. AID 1159583;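 active means 35 to 45% if threefold the growth effect, above 45% if 1.5-fold the growth effect; inactive means the rest, general growth blockers included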;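 further: wells of about 50 µL received 100 nL stock; 0% = vehicle wells and 100% = reference inhibitor wells; whole bacteria with a GFP reporter of the hypoxia response; strong numbers were not always called active; many hits fall short of the cut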
BJeLR viability = kills HRASV12-expressing BJeLR cells; inhibition, % (no concentration beside the values); hit rate 0.17% among 300,000; BJeLR (HRASV12) viability, CellTiter-Glo ATP luminescence, 48 h; reference of the scale not given here;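 active means replicate mean above 50%; inconclusive means above 50% but judged a plate artefact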;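 further: 50 nL library stock added to about 25 µL; numbers are from one replicate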
PrP 5UTR inh = inhibition of PrP 5' UTR reporter expression. cell-based PrP 5' UTR mRNA reporter, plate reader. inhibition, % (concentration not given with the values). hit rate 0.35% among 340,000;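 active means every replicate at 50% or more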;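 further: 0 = median of the neutral control wells; tested in H4 reporter cells; numbers are from one replicate; inactives centre near -14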
Bead autofluor = flagged as autofluorescent in microsphere protease counterscreen; AID 624483; fluorescence intensity (concentration not given with the values); hit rate 3.1% among 360,000; compound autofluorescence counterscreen, microsphere flow cytometry; active compounds read high;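 active means at least 3 SD above the mean of all compounds, about 16000 in these data; inconclusive means too few beads counted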;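 further: 100 nL of 1 mM stock went into each well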
Sa ugtP lethal = growth inhibition of S. aureus ugtP deletion strain; S. aureus RN4220 ugtP deletion, OD600 growth, 16 h; some inactives read as strong as hits; growth inhibition, % (test concentration not listed); hit rate 0.54% among 330,000; AID 1259309;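 active means z-score under -3 and OD600 up to 0.15 on both plates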;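 further: plate controls were untreated wells for no effect and antibiotic for full effect; wells of about 80 µL received 100 nL stock; the first replicate is given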
Sa RN4220 lethal = S. aureus RN4220 growth inhibition. OD600, 16 h. inhibition, % (test concentration not listed). hit rate 0.33% among 330,000;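 active means z-score of -3 or lower and OD600 up to 0.18 on both plates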;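 further: plate controls were untreated cells for no effect and reference antibiotic for full effect; stock transfer was 100 nL into about 80 µL; one replicate is shown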
Mtb hypoxia rep growth = recorded beside Mtb hypoxia rep, whose call it bears; growth inhibition, %; measured here: M. tuberculosis growth (absorbance);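 0% = vehicle and 100% = reference antibiotic; read after six days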
Active calls of the source: *; ? = inconclusive; · = no result given.

SMILES | Mtb hypoxia rep | Mtb hypoxia rep growth | BJeLR viability | PrP 5UTR inh | Bead autofluor | Sa ugtP lethal | Sa RN4220 lethal
O=S(=O)(NCc1cccnc1)c1ccc(Br)s1 | 12 | 11 | -2 | -37 | 23277* | -6 | 11
CCC(=O)Nc1nnc(S(=O)(=O)N(C)c2cc(C)cc(C)c2)s1 | 9 | 2 | -7 | -8 | 3945 | 6 | 9.3
O=C(CCCc1nc2ccccc2s1)NCc1ccc(F)cc1 | · | · | 8 | -15 | 1938 | · | ·
CCOC(=O)CC(=O)CSc1ncnc2c1nnn2-c1ccccc1 | 4 | -4 | -8 | 6 | 4550 | 13 | 6.0
CCC(CC)C(=O)NCCCN1CCOCC1 | 6 | 4 | 3 | -4 | 2638 | 4 | 1.4
S=C(NCCc1ccccc1)NCC(c1ccco1)N1CCCCC1 (stereo not given) | 8 | 9 | 0 | -21 | 5066 | 8 | 3.5
CC(=O)N(N=Cc1cccc(C)c1)c1nc(-c2ccc(Br)cc2)cs1 | 2 | 2 | · | · | · | 5 | 2.5
CS(=O)(=O)c1ccc2nc(NC(=O)C3CCCCC3)sc2c1 | 5 | 3 | -6 | 3 | 9900 | 4 | 3.7
Cc1c(O)c2ccccc2oc1=O | 3 | 0 | 0 | 9 | 3596 | 7 | 4.8
CCOC(=O)CN1C(=O)C(=O)N(Cc2c(Cl)cccc2Cl)C1=O | 4 | -1 | 4 | -14 | 3785 | 16 | 0.7
O=C(Nc1nc2ccc(F)cc2s1)c1ccccn1 | 0 | 8 | 27 | · | · | 0 | 44
CN(C)S(=O)(=O)c1ccc(N2CCCC2)c(C(=O)Nc2nc(-c3ccc(F)c(F)c3)cs2)c1 | 10 | -1 | -10 | -12 | 3093 | -15 | -2.3
COc1cc(OC)cc(C(=O)N[C@H](C(=O)Nc2nc(-c3cc(OC)ccc3OC)cs2)C(C)C)c1 | -4 | -1 | 0 | -18 | 3254 | 9 | -0.5
CC1CCC(C(C)C)C(OC(=O)Cn2nnc3c(cnn3-c3ccccc3)c2=O)C1 (stereo not given) | 0 | 4 | 1 | -11 | 3687 | 3 | 24
COc1cccc2c(NN=Cc3ccco3)cc(C)nc12 | 1 | -7 | · | · | · | 6 | 4.4
Cc1ccc(N/C(N)=N/c2nc(CSc3ccc(C)cc3)cc(=O)[nH]2)cc1 | 9 | 2 | · | -16 | 23020* | -14 | 20
CCC(C)[C@H](NC(=O)NCc1ccc(S(N)(=O)=O)cc1)C(=O)O (stereo not given in full) | 1 | 4 | -1 | 3 | 3768 | 1 | 3.6
CCSc1nnc(NC(=O)C2CCCCC2C(=O)O)s1 (stereo not given) | 10 | 6 | -1 | -17 | 2487 | 7 | 1.7
Cc1ccc(S(=O)(=O)CCC(=O)Nc2nc(-c3ccccn3)cs2)cc1 | -6 | 5 | · | -6 | ? | -3 | -0.7
CCCNc1nc(C)cc(-c2cc(C(=O)Nc3ccccc3)on2)n1 | · | · | -4 | -17 | 3887 | · | ·
O=C(CN1CCCC1)N1CCN(c2ccccc2)CC1 | 3 | 3 | 0 | -2 | 4569 | 6 | 6.8
O=C(CCN1C(=O)C2C3C=CC(C3)C2C1=O)Nc1c(F)cccc1F (stereo not given) | · | · | -10 | 0 | 3713 | 13 | 6.6
CCN(CC)C(=O)CSc1nnc(CNc2ccc(F)cc2)n1-c1ccccc1 | 6 | 3 | 5 | -26 | 6757 | 2 | 8.2
O=C(C1CCN(S(=O)(=O)c2ccccc2)CC1)N1CCN(c2ccccc2F)CC1 | 1 | 1 | · | -1 | 6868 | 5 | 3.2
COc1ccc(N(CC(=O)NCCc2ccccc2)C(=O)CCC(=O)Nc2nccs2)c(OC)c1 | 12 | 6 | -2 | -5 | 3788 | 1 | 3.4

Individual results from the results shown.
Cc1ccc(S(=O)(=O)CCC(=O)Nc2nc(-c3ccccn3)cs2)cc1 – PrP 5UTR inh = -6
CCCNc1nc(C)cc(-c2cc(C(=O)Nc3ccccc3)on2)n1 – Bead autofluor = 3887
CN(C)S(=O)(=O)c1ccc(N2CCCC2)c(C(=O)Nc2nc(-c3ccc(F)c(F)c3)cs2)c1 – Bead autofluor = 3093
COc1ccc(N(CC(=O)NCCc2ccccc2)C(=O)CCC(=O)Nc2nccs2)c(OC)c1 – PrP 5UTR inh = -5

Two compounds picked at random from those above:
SMILES | Mtb hypoxia rep | Mtb hypoxia rep growth | BJeLR viability | PrP 5UTR inh | Bead autofluor | Sa ugtP lethal | Sa RN4220 lethal
Cc1c(O)c2ccccc2oc1=O | 3 | 0 | 0 | 9 | 3596 | 7 | 4.8
O=C(CCN1C(=O)C2C3C=CC(C3)C2C1=O)Nc1c(F)cccc1F (stereo not given) | · | · | -10 | 0 | 3713 | 13 | 6.6

(next part)
SMILES | Mtb hypoxia rep | Mtb hypoxia rep growth | BJeLR viability | PrP 5UTR inh | Bead autofluor | Sa ugtP lethal | Sa RN4220 lethal
COc1ccc(CN(C)S(=O)(=O)c2nnc(NC(=O)c3cccc(F)c3)s2)cc1OC | 2 | 6 | 5 | 7 | 4772 | 16 | 27
c1coc(CNC2CCCCCCC2)c1 | 16 | 6 | 0 | -28 | 7166 | 9 | 6.1
COc1ccc(CN2CCN(Cc3ccc(C)cc3)C(CCO)C2)cc1OC (stereo not given) | -2 | 3 | 13 | -17 | 4985 | 0 | 2.1
O=C1[C@H]2[C@H](ON3CCCC[C@H]23)C(=O)N1c1ccc(Cl)cc1 | 13 | 1 | -13 | -16 | 4072 | 9 | 6.2
CCC(=O)NC(=S)Nc1ccccc1C(=O)OC | 2 | 9 | -14 | -19 | 2427 | 5 | 5.7
CCOC(=O)C1(CCSC)NC(c2ccco2)C2C(=O)N(CC)C(=O)C21 (stereo not given) | 5 | 5 | -6 | -15 | 3319 | 10 | 3.3
O=C(CC1NC2CCCCC2NC1=O)Nc1ccc2c(c1)OCO2 (stereo not given) | -9 | 1 | 1 | -18 | 5872 | 0 | 2.4
O=C(Cc1cccs1)Nc1cc(S(=O)(=O)N2CCCCC2)ccc1Cl | 3 | 4 | · | 0 | 3653 | 7 | 2.2
COc1ccc(-c2c3c([nH]c(=S)c2C#N)CCC3)cc1 | · | · | · | -4 | 3463 | 4 | 16
COC(=O)COn1c(-n2nc(C)cc2C)nc2ccccc2c1=O | -7 | 6 | 2 | 5 | 22312* | 0 | 0.8
Cc1cccc(NC(=O)c2cccnc2Cl)n1 | 6 | 9 | 0 | -32 | 5800 | 4 | 1.2
COc1ccc(Oc2cnc3ccccc3n2)cc1 | 9 | 11 | 0 | -29 | 2240 | 5 | 8.8
O=C(COC(=O)c1ccc[nH]c1=O)NCC1CCCO1 (stereo not given) | · | · | -2 | -9 | 5552 | 1 | -3.5
CCCCCN(C(=O)NC(=O)Nc1ccccc1C)S(C)(=O)=O | 12 | -1 | 3 | -13 | 12479 | -2 | 0.4
CCC(C(=O)NCCCN1CCN(C)CC1)n1nc(C)n2c(cc3occc32)c1=O (stereo not given) | -2 | 12 | 0 | -20 | 5144 | 8 | 2.4
CN(CC(=O)Nc1ccc(Cl)cc1)C(=O)c1ccc(N2CCCC2=O)cc1 | 4 | -6 | · | · | · | 10 | 1.3
Nc1nnc(SCC(=O)OCC(=O)c2ccccc2)s1 | 15 | 6 | -8 | -18 | 3950 | 11 | 5.8
COC(=O)C1=C(c2ccc(C(C)=O)cc2)CC2CCC1N2C(=O)NCc1ccco1 (stereo not given) | 4 | 5 | · | · | · | 8 | 7.0
Cn1nc(C(=O)OCC(=O)c2ccc(Cl)cc2)c2ccccc2c1=O | 6 | 6 | · | -21 | 3867 | 2 | 1.8
COCc1cc(C)nc(SCC(=O)Nc2cccc(C)c2)c1C#N | · | · | 7 | -41 | 4220 | 9 | 2.6
CCOC(=O)c1csc(NC(=O)CSc2nnnn2-c2ccc(OCC)cc2)n1 | -2 | -12 | 3 | -26 | 6928 | -5 | 1.2
CCCCN(C(=O)CCNC(=O)NC12CC3CC(CC(C3)C1)C2)c1c(N)n(CCCC)c(=O)[nH]c1=O | -6 | 8 | 1 | 9 | 5571 | -2 | -3.3
CC1CN(c2nnc(NC(=O)c3ccccc3)s2)CC(C)O1 (stereo not given) | 9 | 7 | 0 | -48 | 4454 | 8 | 7.1
Cc1nc(N2CCN(c3ccccn3)CC2)c2c(C)c(C(=O)Nc3ccc(F)cc3Cl)sc2n1 | -7 | 6 | -4 | -4 | 5234 | 4 | 0.6
Cc1ccc(N=C2C(=O)Nc3ccc(C)c(Br)c32)cc1 | · | · | -9 | -19 | 3777 | · | ·
(continued)
SMILES | Mtb hypoxia rep | Mtb hypoxia rep growth | BJeLR viability | PrP 5UTR inh | Bead autofluor | Sa ugtP lethal | Sa RN4220 lethal
O=[N+]([O-])c1ccc(C=NN=Cc2ccc([N+](=O)[O-])cc2)cc1 | 15 | 5 | · | -33 | 3781 | -1 | 6.1
COc1cccc(C(=O)N2CCN(S(C)(=O)=O)CC2)c1 | 12 | 6 | -7 | 8 | 23027* | -8 | 0.2
CCN(C[C@H]1N[C@@](CC)(C(=O)OC)[C@H]2C(=O)N(Cc3ccccc3)C(=O)[C@@H]12)C(=O)c1ccccc1 | 4 | 6 | · | -15 | 3686 | 2 | -1.1
CC(=NNC(=O)c1ccco1)c1ccc(NC(=O)c2ccc(Br)o2)cc1 | -1 | 4 | · | · | · | 3 | 1.8
CCCCn1c(N)c(N(CCC(C)C)C(=O)C2=NN(c3ccccc3)C(=O)CC2)c(=O)[nH]c1=O | 3 | -4 | · | -18 | 3112 | 6 | 1.1
CCC(CC)NC(=O)COC(=O)c1cccc(C)c1O | 8 | 0 | 5 | -5 | 3344 | 6 | -0.3
O=C1CCCC2=C1C(c1ccccc1)C1C(=O)c3ccccc3C1=N2 (stereo not given) | 3 | 5 | -7 | -64 | 2415 | 4 | 5.3
O=C(COc1ccc(Cl)cc1)NC1CC1 | -5 | 2 | -1 | -1 | ? | -8 | -2.7
COC(=O)C1=C(c2cccc(OCc3ccccc3)c2)CC2CCC1N2C(=O)NCCCOC(C)C (stereo not given) | 7 | 1 | · | · | · | 18 | 4.8
CN1CCN(CCNC(=O)Cn2c(=O)c3cccn3c3ccc(F)cc32)CC1 | -3 | -8 | 7 | 10 | 4023 | 2 | 2.5
NC(=O)NC(CC(=O)N1CCc2ccccc2C1)c1ccc(Cl)cc1 (stereo not given) | 9 | 5 | -3 | -7 | 3614 | 12 | 3.0
CCCCOc1nc2c(c(=O)n(C)c(=O)n2C)n1C | -6 | -6 | 1 | 2 | 3565 | 7 | 5.3
COCCCNc1nc2cc(OC)c(OC)cc2c2nc(-c3ccccc3)nn12 | -6 | -14 | -2 | -1 | 3994 | 11 | 25
Cc1nn(C)cc1CNC(=O)/C=C/c1cnn(C)c1 | 3 | 3 | 23 | -9 | 1996 | 10 | 2.9
COc1ccc(N2CC(C(=O)Nc3nnc(SCC(=O)NC(C)(C)C)s3)CC2=O)cc1 (stereo not given) | 7 | 19 | -3 | -24 | 3642 | 2 | 1.1
COc1cc(OC)cc(C(=O)N[C@H](C(=O)NC23CC4CC(CC(C4)C2)C3)C(C)C)c1 | -6 | 0 | -1 | -7 | 3508 | -11 | 0.9
CCOC(=O)N1CCC(NC(=O)CS(=O)(=O)Cc2nc(-c3ccccc3Cl)oc2C)CC1 | 2 | -1 | -1 | -3 | 4273 | 7 | 4.4
OCCCCc1nccc2c1[nH]c1ccccc12 | 12 | 15 | 2 | -1 | 3679 | -4 | 4.1
COCCNC(=O)c1ccc(N2CC3CC(C2)c2cccc(=O)n2C3)c([N+](=O)[O-])c1 (stereo not given) | -2 | 10 | 9 | -24 | 4159 | 4 | 6.3
COc1ccccc1CN(C(=O)CNC(=O)c1ccco1)C(C(=O)NCC1CCCO1)c1ccc(OC)c(OC)c1 (stereo not given) | -10 | 2 | 3 | -10 | 3922 | 1 | -1.4
CC(=O)c1nnn(-c2c(F)cccc2F)c1C | 13 | 6 | 13 | -16 | 3649 | 9 | 1.1
O=C(CCN1C(=O)C2C3C=CC(C3)C2C1=O)Nc1ccc(F)cc1 (stereo not given) | · | · | 8 | 0 | 3713 | 7 | 4.2
COC(=O)c1ccccc1NC(=O)c1cc[n+](C)cc1 | -1 | 5 | 2 | 0 | 3352 | 1 | 1.8
O=C(CSCc1ccc(Cl)cc1)Nc1ccc(O)cc1C(=O)O | 23 | 14 | -4 | -11 | 3987 | 8 | 4.3
CC1C=C(C(=O)N2CCN(Cc3ccc4c(c3)OCO4)CC2)OC(OCc2ccc(CO)cc2)C1 (stereo not given) | 21 | 10 | · | · | · | 5 | 7.4

No enrichment for hits, and some 4% of all compounds hit somewhere here.
